CDC25B CDK2 inh: human CDC25B-CDK2/CyclinA binding inhibition; P30305+P24941; HTRF CDC25B-CDK2/CyclinA binding, anti-His/anti-Flag; stronger effect = higher value; z-score (test concentration not listed); 0.72% of 94,000 active; AID 1259370;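 also: score is relative to mean and SD of negative controls; strong numbers were not always called active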
TAR Tat displ: HIV-1 TAR-Tat binding disruption; HIV-1 TAR RNA, Tat peptide displacement FRET; stronger effect = higher value; z-score (test concentration not listed); 0.6% of 100,000 active;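 also: score is relative to mean and SD of negative controls; some compounds called inactive have numbers as strong as hits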
* hit, by the source's call; / = not tested or not shown.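 The calls were made as follows: active = z-score from 3 up in half or more of its runs; inactive = the rest.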

SMILES	CDC25B CDK2 inh	TAR Tat displ
O=c1sc(/C=N/Nc2ccccc2)c(Cl)n1-c1ccccc1	2	/
CCOCCCN1C(=O)c2cc3sccc3n2CC1(C)C(=O)NC1CCCC(C)C1C (stereo not drawn)	-1.3	0.9
Cc1ccc(C)c(S(=O)(=O)NCc2ccncc2)c1	-0.97	0.7
CCN(CC)CCSc1nc2ccccc2[nH]1	-1.4	0.99
O=C1CCc2cc(S(=O)(=O)NC(C(=O)NC3CCCC3)c3ccccc3)ccc2N1 (stereo not drawn)	-1.4	/
CC(=O)Oc1ccccc1C(=O)OC1=C(C(=O)c2ccccc2)N(C)S(=O)(=O)c2ccccc21	-0.75	/
C[C@@H]1O[C@@H](OC[C@H]2OC(Oc3c(-c4ccc(OCCO)c(OCCO)c4)oc4cc(OCCO)cc(O)c4c3=O)[C@H](O)[C@@H](O)[C@@H]2O)[C@H](O)[C@H](O)[C@H]1O (stereo partly drawn)	/	0.06
COc1ccc(-n2nnc(-c3nc(-c4ccc(C)cc4)no3)c2C)cc1Cl	/	0.24
CC1CCC(NC(=O)C2CCC(CNS(=O)(=O)c3ccc4c(c3)CCCC(=O)N4)CC2)CC1 (stereo not drawn)	/	1.7
O=C(O)c1sc(C(=O)O)c(-c2ccco2)c1-c1ccco1	0.97	/
O=C(NC1CCCc2ccccc21)c1ncoc1-c1cccs1 (stereo not drawn)	/	1.4
Cc1csc2nc(COC(=O)c3ccc(F)cc3)cc(=O)n12	/	-1.8
CCc1nnc2sc(/C=C/c3ccco3)nn12	-1.1	8.4*
Cc1ccc2oc(-c3ccco3)c(O)c(=O)c2c1	-0.61	-4.2
O=C(c1ccc(Cl)cc1)N1CCN(CCN=Cc2ccccc2)CC1	-1.3	/
Cc1ccc(-n2c(C)ccc2C)nc1	-1.9	-2.3
CCN1CCC2(CC1)OC(=O)C(C)=C2C(=O)N1CCN(c2ccc(Cl)cc2)CC1	/	1.9
COc1ccc2cc(C(=O)Nc3ccc(S(N)(=O)=O)cc3)sc(=O)c2c1OC	-1	/
CCc1ccc(S(=O)(=O)c2cnc3ccc(OC)cc3c2N2CCCC2)cc1	5.4	-2.4
COc1ccc(CNc2ncnc3onc(-c4ccccc4OC)c23)cc1	/	0.41

Three compounds drawn at random from the list so far, as already listed:
SMILES	CDC25B CDK2 inh	TAR Tat displ
CC(=O)Oc1ccccc1C(=O)OC1=C(C(=O)c2ccccc2)N(C)S(=O)(=O)c2ccccc21	-0.75	/
CC1CCC(NC(=O)C2CCC(CNS(=O)(=O)c3ccc4c(c3)CCCC(=O)N4)CC2)CC1 (stereo not drawn)	/	1.7
O=C(c1ccc(Cl)cc1)N1CCN(CCN=Cc2ccccc2)CC1	-1.3	/

Next results follow:
SMILES	CDC25B CDK2 inh	TAR Tat displ
CC(=O)C12c3ccccc3C(c3ccccc31)C1C(=O)N(c3ccc(Cl)c(C(=O)O)c3)C(=O)C12 (stereo not drawn)	-3.1	/
CCCN(CCC)C(=O)CSc1nc(-c2ccco2)nc2cc(=O)[nH]n12	/	5.3
CN(C)CCCNc1ncnc2c1sc1nc(N3CCOCC3)c3c(c12)CC(C)(C)SC3	-0.14	0.79
O=C(CCc1nc2cccnc2n1-c1ccccc1)Nc1ccc2c(c1)OCO2	-2.3	1.6
COc1cccc(C2C3=C(CC(C)(C)CC3=O)Nc3nc(SCC(C)C)[nH]c(=O)c32)c1OC (stereo not drawn)	-1.2	-0.18
CCCCC(=O)Nc1nc2nc(C)c(C)c(=O)n2[nH]1	0.43	1.6
CCC(C(=O)Nc1cccc(Cl)c1)n1nc(C)c2sc3ccccc3c2c1=O (stereo not drawn)	0.04	13*
O=C(CCc1ccccc1)Nc1nnc(S(=O)(=O)N2CCc3ccccc32)s1	-1.9	1.1
COc1ccc(-c2noc(-c3ccc(C)cc3Cl)n2)cc1OC	-0.21	1.1
COc1ccc(NC(=O)c2nn(-c3ccc(F)cc3)ccc2=O)cc1Cl	-1.3	1.1
CCc1ccccc1OCc1nnc(SCc2cc(=O)c3ccc(C)c(C)c3[nH]2)n1C	/	-0.04
Cn1c(SCC(=O)Nc2ccccc2)nc2c(oc3ccccc32)c1=O	-1.6	-1.2
Cc1cc(NC(=O)Nc2ccccc2Oc2ccccc2)c(C(F)(F)F)o1	-1.4	/
Cc1ccc2oc(-c3ccccc3F)c(O)c(=O)c2c1	-0.64	-0.18
CSc1ncc(C(=O)NCc2ccc3c(c2)OCO3)c(C(F)(F)F)n1	/	1.1
Cc1ccc(S(=O)(=O)CCc2nnc(NC(=O)c3cccs3)s2)cc1C	-0.72	/
O=C(c1ccc(F)cc1)N1CCCn2c(SCc3ccccc3Cl)nnc21	-0.14	/
O=C(COCc1cc(-c2ccc3c(c2)OCO3)on1)NCc1cccs1	/	-0.57
COc1cc(NC(=O)N2CCCC2c2ccco2)cc(OC)c1 (stereo not drawn)	-2.4	0.75
CN(C)CCN(Cc1ccco1)C(=O)Cn1ncc2c1-c1ccccc1OC2	-0.87	/
Cc1c2cnn(-c3ccccc3)c(=O)c2c(C)n1C(C)C(=O)NCc1ccccn1 (stereo not drawn)	0.24	0.88
COc1cc(C=Nc2ccc3oc(=O)ccc3c2)cc(OC)c1OC	-1	/
O=C(CN1CCOCC1)Nc1ccccc1Sc1nccc(C(F)(F)F)n1	-1.8	/
COc1ccc2c(C)nc(Nc3nc(-c4ccccc4)cc(=O)[nH]3)nc2c1	4	0.77
COc1ccc(OC)c(NC(=O)CSc2nnc(Cc3cccn3C)n2C)c1	-1.5	0.76
COc1ccc(CCN2C(=O)C(Oc3ccccc3C)C2c2ccc3c(c2)OCO3)cc1OC (stereo not drawn)	1.8	2.6
Cc1ccccc1N1C(=O)Nc2ccccc2S1(=O)=O	/	-0.36
Cc1ccc2[nH]cc(NC(=O)NCCc3ccncc3)c(=O)c2c1	-1.3	-0.34
COc1ccccc1-c1nc2c(c(=O)[nH]1)Cc1cc(Cl)ccc1O2	-0.81	2
COc1ccc(-c2noc(-c3cccs3)n2)cc1OC	-19	2.4
COc1ccc(N2CCC(CNC(=O)Nc3ccccc3)C2)cc1 (stereo not drawn)	/	-1.2
Cc1ccc(SCc2cc(=O)n3[nH]cnc3n2)cc1	0.71	/
CCN1CCN(c2nc(NCCO)nc3c2cnn3C)CC1	/	1.1
O=C(NC1CC1)C1CCN(c2nc(-c3ccc(Cl)cc3)no2)CC1	/	0.58
COc1ccc(N2CCN(C3=NS(=O)(=O)C(c4ccc(C)c(C)c4)=C3C)CC2)cc1	-1	-0.2
CC1CCN(S(=O)(=O)c2cn(CC(=O)N(Cc3ccco3)C3CCCC3)cn2)CC1	/	0.66
CC(=O)Nc1c(C)sc(C)c1C(=O)O	-0.51	1.1
CCOCCCNC(=O)C1=C(C)C(=O)OC12CCCCC2	-0.34	-1.9
O=C1CN(Cc2c(F)cccc2Cl)S(=O)(=O)c2ccccc2N1Cc1ccccc1F	/	1.6
CCN1CCN(c2nc3c(c(=O)n(C)c(=O)n3C)n2Cc2ccc(Cl)cc2)CC1	-0.79	2.6
Nc1ncnc2c1c1nc3ccccc3nc1n2Cc1ccccc1	0.7	/
CC(=O)N1CCN(c2cc(N3CCCC3)nc(C)n2)CC1	-0.34	-2
Cn1cc(C(=O)N2CCN(c3ccccn3)CC2)c2c3ccccc3n(C)c2c1=O	0.46	/
O=C1c2ccccc2C(=O)c2c1ccc(O)c2O	/	1
O=C(CO)Nc1c(-c2ccccc2)c2cc(Br)ccc2[nH]c1=O	-1.4	/
CCCn1cc(S(=O)(=O)c2ccc(Cl)cc2)c(=O)c2cc(CC)ccc21	-2.3	-1
Nc1nc(-c2ccncc2)nc2c1cnn2-c1ccccc1	-1.1	/
CC(=O)Nc1nnc(S(=O)(=O)N2CCc3ccccc32)s1	-2.1	0.64
COc1ccc(S(=O)(=O)N2CCC(n3c(=O)[nH]c4ccccc43)CC2)cc1	-3.4	0
Cc1ccc(NS(=O)(=O)c2cc(-c3onc(C)c3C)ccc2C)cc1	/	0.83
CCOC(=O)C(C)NC(=O)c1cc2c(s1)-c1ccc(Cl)cc1S(=O)(=O)C2 (stereo not drawn)	0.11	3.4
CN(C(=O)Cn1ncc2c1-c1ccccc1OC2)c1cccc(Cl)c1	-1.1	-0.57
Cc1ccc2oc3c(c(=O)c2c1)C(c1ccc(O)cc1)N(Cc1ccccc1Cl)C3=O (stereo not drawn)	-1.3	0.32
COc1ccc(-c2nc3ccccn3c2NCc2ccccc2)cc1	-0.47	1.2
CC1CC(=O)Nc2cc(S(=O)(=O)NCCN3CCOCC3)ccc2S1 (stereo not drawn)	/	1.1
COc1ccc(-c2cnc(SCc3ccc(C)cc3)n2C)cc1	/	0.83
C1=CN2CCC1C(c1ccccc1)C2 (stereo not drawn)	-0.09	/
CCOc1ccc2nc(NC(=O)CS(=O)(=O)c3cccc4nsnc34)sc2c1	/	2
O=C(c1[nH]nc2c1CSc1ccccc1-2)N1CCN(c2ccc(F)cc2)CC1	/	-10
Nc1c(-c2nc(-c3ccccc3F)no2)nnn1-c1ccc(F)cc1F	/	1.3

(continued)
SMILES	CDC25B CDK2 inh	TAR Tat displ
COC(=O)CN1C(=O)COc2ccc(S(=O)(=O)N3CCCC3)cc21	/	0.23
COc1ccc(-c2nc(Nc3c(C)n[nH]c3C)sc2C)cc1	-1.7	0.1
COc1ccc(CCNc2ncnc3onc(-c4ccc(Cl)cc4)c23)cc1OC	-0.54	0.99
O=c1c(SCc2ccc(Cl)cc2)nccn1-c1ccc(F)cc1	/	-0.02
CCOC(=O)c1c(NC(=O)N2CCN(CC)CC2)sc2c1CC(C)(C)OC2	-0.5	0.02
COc1ccccc1-n1c(=O)c2c3c(sc2n2cnnc12)CCC3	0.89	/
N#Cc1nc(-c2ccc(COc3ccc(Cl)cc3)o2)oc1N1CCCCC1	0.06	-2
CCN(CC)c1ccc(NC(=O)CSc2nc3nc(C)cc(C)c3c(=O)[nH]2)cc1	-2	/
CC1(C(=O)NC2CCCC2)Cn2c(cc3sccc32)C(=O)N1C1CCCC1 (stereo not drawn)	-1.1	0.6
Cc1cc(C(=O)C(=O)Nc2nnc(-c3ccco3)s2)c(C)n1-c1ccccc1Cl	-1.1	33*
Cc1nnc(SCc2cc(=O)c3cc(F)ccc3[nH]2)n1C	/	1.1
Cc1nc(C)c(-c2ccc(SCc3ccc(Br)cc3)nn2)s1	/	0.46
COc1ccc(CCN2CC(C#N)=C3c4cc(OC)c(OC)cc4CCN3C2)cc1OC	-0.57	1.3
Cc1cccc2nc(Cn3c(=O)n(-c4ccc(Cl)cc4)c(=O)c4c5c(sc43)CCC5)cc(=O)n12	-1.9	0.21
CC(=O)Nc1nonc1-c1nnc(SCc2ccc(F)cc2)n1C	-0.89	1.6
Cn1c(=O)c2c(-c3ccc(Br)cc3)n(CCc3ccccc3)cc2n(C)c1=O	-2.1	1.8
Fc1cc(F)cc(-c2noc3ncnc(NCc4ccco4)c23)c1	/	0.45
O=C(CCN1CCCC1)c1ccc2ccccc2c1	-1.2	/
CCc1c(C)nc2nc(-c3ccco3)[nH]n2c1=O	-0.34	-0.83
O=C(O)COCCN1CCN([C@H](c2ccccc2)c2ccc(Cl)cc2)CC1	/	0.57
COC(=O)c1cc(OC)c(OC)cc1NC(=O)c1cnc(N(C)C)nc1C(F)(F)F	-1.9	/
O=C(CSC1CC(=O)N(c2ccccc2)C1=O)Nc1ccc(Cl)cc1 (stereo not drawn)	-0.54	0.24
COC(=O)c1ccc(CSc2nc(N)c3c4c(sc3n2)CCCC4)cc1	-0.95	-0.96
Cc1ccc(C(=O)CC(=O)c2ccc(C)cc2O)cc1	-1.4	-4.6
CC(C)(C)C1=C(C#N)C(c2cccs2)C(C#N)=C(NC(=O)NC(=O)c2c(F)cccc2Cl)O1 (stereo not drawn)	-2.3	/
O=C(c1ccco1)N1CCN(c2nc3ccccc3n3cnnc23)CC1	-1.2	0.98
O=C(NCCCN1CCCC1=O)C(=O)c1c[nH]c2ccccc12	-0.11	/
CN1C(=O)CC[C@H]1c1cccnc1	-1.2	-0.06
O=C(Cc1ccccc1)Nc1c(-c2ccc(F)cc2)nc2ccccn12	-0.14	/
COc1ccc(C2CC(SCC(=O)c3ccccc3)=Nc3ncnn32)cc1 (stereo not drawn)	-1.9	2.5
CSc1nnc(SCC(=O)N2CCC(C(F)(F)F)CC2)s1	0.86	/
O=C1c2ccncc2C(=O)N1CCc1ccc(Cl)cc1	/	1
O=C(Cn1cc(C(=O)C2CC2)c2ccccc21)NC1CCCC1	-1.5	1
O=C(NCC1CCCO1)C1CCN(c2nc3cccnc3s2)CC1 (stereo not drawn)	/	0.85
O=C(Nc1ccc(F)cc1)C(=S)NCc1ccccc1	-0.94	/
O=c1[nH]c2cc3c(cc2c(=O)n1Cc1nc(-c2ccc(Cl)cc2)no1)OCO3	/	0.64
Cc1ccc(-c2csc(NC(=O)c3ccc(S(=O)(=O)N4CCOCC4)cc3)n2)cc1	-0.77	/
Cc1cc(C)n(-c2cc(NC3CCCCC3)ncn2)n1	/	-0.29

3 consecutive entries out of the list so far:
SMILES	CDC25B CDK2 inh	TAR Tat displ
COC(=O)c1cc(OC)c(OC)cc1NC(=O)c1cnc(N(C)C)nc1C(F)(F)F	-1.9	/
O=C(CSC1CC(=O)N(c2ccccc2)C1=O)Nc1ccc(Cl)cc1 (stereo not drawn)	-0.54	0.24
COC(=O)c1ccc(CSc2nc(N)c3c4c(sc3n2)CCCC4)cc1	-0.95	-0.96

A different layout for some results above:
> O=C(Nc1ccc(F)cc1)C(=S)NCc1ccccc1
  CDC25B CDK2 inh = -0.94 | TAR Tat displ = /
> Cc1ccc(C(=O)CC(=O)c2ccc(C)cc2O)cc1
  CDC25B CDK2 inh = -1.4 | TAR Tat displ = -4.6
> Cc1ccc(-c2csc(NC(=O)c3ccc(S(=O)(=O)N4CCOCC4)cc3)n2)cc1
  CDC25B CDK2 inh = -0.77 | TAR Tat displ = /
> O=c1[nH]c2cc3c(cc2c(=O)n1Cc1nc(-c2ccc(Cl)cc2)no1)OCO3
  CDC25B CDK2 inh = / | TAR Tat displ = 0.64

Assay outcomes (PubChem)
